Assay outcomes as filed in PubChem BioAssay.
StopGo reporter: High Throughput Screening for Foot and Mouth Disease Virus Antivirals; 1.2% of 410,000 active; Potency, µM (doses to about 57.9 µM), without a hit: at the top dose signal change, negative = less light; human cells with a luciferase reporter of 2A StopGo recoding; control for the full effect not named in the record; AID 1159524, 2015; active = well fitted falling curve with a large enough effect; inconclusive = small, poorly fitted or top-dose-only effect; inactive = no such curve, though single readings can be large or run the other way; tested in HEK293T cells; also: nearly all actives have a fitted effect of over 45% in size; luciferase light after 4 h
RE007 growth inh: qHTS Assay for Inhibitors of the HIV-1 protein Vpr; S. pombe RE007 Vpr strain, BacTiter-Glo ATP luminescence, 24 h; control for the full effect not named in the record; Potency, µM (doses to about 92.2 µM), for the others: at the top dose activity change, negative = less growth; 0.21% of 360,000 active; AID 651644, 2012; active = well fitted falling curve with a large enough effect; inconclusive = small, poorly fitted or top-dose-only effect; inactive = no such curve, though single readings can be large or run the other way;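 also: nearly all actives have a fitted effect of over 50% in size; the assay follows cell death caused by Vpr and the record does not say whether a fall means rescue or toxicity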
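Fission yeast RE007 carrying one integrated HIV-1 vpr copy, seeded at OD 0.01 in PMG+AL medium with 23 nL pinned compound. Grown 24 h at 30 degrees; viability read by BacTiter-Glo luminescence after 5 min.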
Active calls of the source: *; u = inconclusive; [ ] = remark or other dose. % is scaled to controls: 0 for no effect and ±100 for the full control effect; potency is read from the fitted curve at half-maximal effect. An excerpt; the hit share may differ from the screen's.

SMILES	StopGo reporter	RE007 growth inh
C[C@@H]1CN([C@@H](C)CO)C(=O)c2cc(NC(=O)c3ccccc3)ccc2O[C@@H](C)CCCCO[C@@H]1CN(C)Cc1ccc(C(F)(F)F)cc1	u	1.7%
CC(C)CN(C(=O)COC(=O)C12CC3CC(CC(O)(C3)C1)C2)c1c(N)n(Cc2ccccc2)c(=O)[nH]c1=O	-1.9%	9.8%
CCOC1=C2[C@@H](CN(S(=O)(=O)c3ccc(C)cc3)[C@H]2c2ccc(CC)cc2)[C@H]2C(=O)N(c3ccccc3)C(=O)[C@H]2C1	-8.1%	-3.7%
OC(c1ccc(F)c(F)c1)c1ncc(-c2ccc(Cl)cc2)[nH]1 (stereo not drawn)	8.0%	-10.0%
Cc1ccc(Cc2c(-c3ccccc3)nc3cc(C)c(Br)c(C)n23)cc1	7.0%	-15.1%
CC(=O)N1Cc2cc(C(=O)NCC(F)(F)F)nc(-c3cccc(-c4cc5ccccc5o4)c3)c2[C@H]1CCO	-2.1%	-14.6%
COc1cc(C(=O)c2cc3c(cc2C)OCO3)cc(OC)c1OC	-6.8%	-2.2%
COc1cc(CNC(=O)Nc2nc(C(N)CCc3ccccc3)cs2)cc(OC)c1OC (stereo not drawn)	-15.4%	-9.6%
CC[C@@H](C)CN1C(=O)N[C@@H](c2ccccc2)C(C(C)=O)=C1C	10.2%	1.9%
Nc1nc2cc(Cl)ccc2n1N	-5.6%	-24.6%

The final 2 records of the part above open the next one:
SMILES	StopGo reporter	RE007 growth inh
CC[C@@H](C)CN1C(=O)N[C@@H](c2ccccc2)C(C(C)=O)=C1C	10.2%	1.9%
Nc1nc2cc(Cl)ccc2n1N	-5.6%	-24.6%
C[C@H]1CN([C@@H](C)CO)C(=O)CCCn2nncc2CO[C@@H]1CN(C)Cc1ccc(C(F)(F)F)cc1	4.7%	-1.6%
O=C(C[C@@H]1CC[C@H](NC(=O)Nc2ccc(F)cc2)[C@@H](CO)O1)NCc1cccc(F)c1	-16.1%	5.0%
Cc1ccc(OC2CCN(C(=O)[C@H]3O[C@@H](n4ccc(N)nc4=O)[C@H](O)[C@@H]3O)CC2)cc1	-20.8%	-3.6%
CCCCCCn1c(=O)n2n(c1=O)C[C@]1(OC(=O)NCc3ccc(OC)c(OC)c3)CN(S(=O)(=O)c3ccc(C)cc3)C[C@]1(O)C2	-18.4%	8.5%
CC[C@H](C)[C@H]1CNC(=S)N1CC1CCN(CCCCc2ccccc2)CC1	-15.9%	-7.6%
COC(=O)CCC(=O)OC1(C)C(=O)C2=CN(CCc3c[nH]c4ccccc34)C(c3ccc(OC)cc3)=CC2=C(Br)C1=O (stereo not drawn)	23.0%	u
OCCNc1ncnc2c1nnn2Cc1ccccc1Cl	0.0%	8.1%
CCN(CC)c1ncnc2c1ncn2[C@H]1CN(Cc2ccc(OC)cc2)C[C@@H](CO)O1	-9.8%	1.3%
CC(O)(c1cccc(F)c1)c1nc(-c2cccc3cccnc23)cs1 (stereo not drawn)	-8.4%	-5.9%[18.4 µM]
CCOC(=O)C1(C)CCCCCN1C(=O)c1ccccc1F (stereo not drawn)	-16.7%	-9.7%
CCCS(=O)(=O)NC(=O)C1(C)CCN(C(=O)c2ccc(C(F)(F)F)nc2C)C1 (stereo not drawn)	-20.0%	-0.1%
c1ccc2c(-c3ccc4nncn4c3)cncc2c1	-16.5%	14.3%
CN(CCN1CCOCC1)C(=O)C1CCC(=O)N(Cc2ccc(Cl)cc2)C1 (stereo not drawn)	-6.9%	4.1%
CC1(C(=O)NS(=O)(=O)c2ccccc2)CCN1C(=O)C1(c2ccccc2)CCCC1 (stereo not drawn)	8.3%	4.1%[18.4 µM]
CC(C)C[C@@H](CNCC(=O)[C@H](CC(C)C)NC(=O)c1[nH]cnc1C(=O)N[C@@H](C)CN)NC(=O)c1nc[nH]c1C(=O)N[C@@H](Cc1ccccc1)C(=O)O	-10.3%	8.6%
COc1ccccc1CNc1nc(Oc2cccc(F)c2)c2sccc2n1	-17.0%	11.3%
CC1(C(=O)Nc2ccccc2F)CCN1C(=O)Cc1cc(F)ccc1F (stereo not drawn)	-3.5%	-0.1%[18.4 µM]
Cc1ccc(Cn2c(C)c(C(=O)NCc3cccs3)sc2=O)cc1	-10.8%	0.4%[18.4 µM]
COc1ccc2c(c1)[C@H]1[C@H](CO2)[C@H](c2ccccc2)[C@]2(C)C(=O)Nc3ccc(Cl)cc3C(=O)N12	u	-9.1%
Nc1c(Cl)cc(-c2csc(N3CCCC3c3nc4cc(Cl)c(Cl)cc4n3CCCO)n2)cc1Cl (stereo not drawn)	8.1%	-2.8%
CC(O)(c1cccc(F)c1)c1nc(-c2cccc(C#N)c2)cs1 (stereo not drawn)	-15.4%	51.8%
COC(=O)C[C@@H]1CC[C@H](NC(=O)c2cnccn2)[C@@H](CO)O1	-16.2%	-5.0%
COc1ccc(C(NC(=O)C2CCN(Cc3cc(OC)cc(OC)c3)CC2)c2ccccn2)cc1 (stereo not drawn)	-11.7%	-2.9%
COc1ccc(S(=O)(=O)N(C)C[C@@H]2OCc3cnnn3CCCC(=O)N([C@H](C)CO)C[C@@H]2C)cc1	u	9.3%
C/C(NCCc1ccccc1)=C1/CCOC1=O	-4.8%	-4.5%
CC1(C(=O)NS(=O)(=O)c2ccc(Cl)cc2)CCN1C(=O)C1(c2ccc(Cl)cc2)CC1 (stereo not drawn)	41.4%[activator]	6.6%[18.4 µM]
CN1CCN(C(=O)C[C@H]2C[C@H]3c4cc(NC(=O)NC5CCCCC5)ccc4O[C@H]3[C@@H](CO)O2)CC1	0.5%	24.6%
CC(C)C(=O)N1CCCC1(C)C(=O)NCc1ccc(Cl)cc1 (stereo not drawn)	-11.6%	0.5%
COC(=O)C1=C(c2cccc(OC)c2OC)C[C@@H]2CC[C@H]1N2C(=O)NCCS(C)=O (stereo partly drawn)	-1.4%	-7.6%
COC(=O)C1=C(C)N(CCCC(=O)O)C(=O)NC1c1ccc(OC)cc1 (stereo not drawn)	-8.4%	-8.2%
CC(=O)Nc1cccc(-c2ccnc3c2CC(C)(C(=O)NCc2ccc(F)c(F)c2)O3)c1 (stereo not drawn)	-23.7%	-4.3%
Cc1cc(C)cc(CC(=O)N2CCC2(C)C(=O)NS(=O)(=O)c2cc(C)ccc2F)c1 (stereo not drawn)	-5.1%	0.0%[18.4 µM]
CCOC(=O)C1(C)CCCN1C(=O)c1ccc(C(F)(F)F)nc1C (stereo not drawn)	-19.4%	-4.6%
O=C(c1cccc(C(=O)N2CCC(O)(c3ccccc3)CC2)c1)N1CCC(O)(c2ccccc2)CC1	11.2%	-6.9%
NC(=S)NN=Cc1ccc(OC(=O)COc2cc(Cl)c(Cl)cc2Cl)cn1	u	17.1%
COC(=O)C1=CN(c2cccc(OCc3ccccc3)c2)C(N)=C(C#N)C1c1ccccc1 (stereo not drawn)	-15.5%	2.3%
CC1(C(=O)NS(=O)(=O)C2CC2)CCCN(C(=O)Cc2ccc3ccccc3c2)C1 (stereo not drawn)	-0.3%	6.3%
Cc1cc(C)cc(CC(=O)N2CCC2(C)C(=O)NS(=O)(=O)Cc2ccccc2)c1 (stereo not drawn)	-12.1%	3.6%[18.4 µM]
CCOc1ccc(-n2c(C)c3c(C)nnc(C)c3c2C)cc1	u	-18.1%
CC(C)C[C@@H](CNCC(=O)[C@H](C)NC(=O)c1[nH]cnc1C(=O)N[C@@H](C)CN)NC(=O)c1nc[nH]c1C(=O)N[C@@H](Cc1ccccc1)C(=O)O	-18.6%	17.4%

A run of entries of the results above, for reference:
SMILES	StopGo reporter	RE007 growth inh
CC1(C(=O)NS(=O)(=O)c2ccc(Cl)cc2)CCN1C(=O)C1(c2ccc(Cl)cc2)CC1 (stereo not drawn)	41.4%[activator]	6.6%[18.4 µM]
CN1CCN(C(=O)C[C@H]2C[C@H]3c4cc(NC(=O)NC5CCCCC5)ccc4O[C@H]3[C@@H](CO)O2)CC1	0.5%	24.6%
CC(C)C(=O)N1CCCC1(C)C(=O)NCc1ccc(Cl)cc1 (stereo not drawn)	-11.6%	0.5%
COC(=O)C1=C(c2cccc(OC)c2OC)C[C@@H]2CC[C@H]1N2C(=O)NCCS(C)=O (stereo partly drawn)	-1.4%	-7.6%
COC(=O)C1=C(C)N(CCCC(=O)O)C(=O)NC1c1ccc(OC)cc1 (stereo not drawn)	-8.4%	-8.2%
CC(=O)Nc1cccc(-c2ccnc3c2CC(C)(C(=O)NCc2ccc(F)c(F)c2)O3)c1 (stereo not drawn)	-23.7%	-4.3%
Cc1cc(C)cc(CC(=O)N2CCC2(C)C(=O)NS(=O)(=O)c2cc(C)ccc2F)c1 (stereo not drawn)	-5.1%	0.0%[18.4 µM]
CCOC(=O)C1(C)CCCN1C(=O)c1ccc(C(F)(F)F)nc1C (stereo not drawn)	-19.4%	-4.6%
O=C(c1cccc(C(=O)N2CCC(O)(c3ccccc3)CC2)c1)N1CCC(O)(c2ccccc2)CC1	11.2%	-6.9%
NC(=S)NN=Cc1ccc(OC(=O)COc2cc(Cl)c(Cl)cc2Cl)cn1	u	17.1%
COC(=O)C1=CN(c2cccc(OCc3ccccc3)c2)C(N)=C(C#N)C1c1ccccc1 (stereo not drawn)	-15.5%	2.3%
CC1(C(=O)NS(=O)(=O)C2CC2)CCCN(C(=O)Cc2ccc3ccccc3c2)C1 (stereo not drawn)	-0.3%	6.3%
Cc1cc(C)cc(CC(=O)N2CCC2(C)C(=O)NS(=O)(=O)Cc2ccccc2)c1 (stereo not drawn)	-12.1%	3.6%[18.4 µM]
CCOc1ccc(-n2c(C)c3c(C)nnc(C)c3c2C)cc1	u	-18.1%

Next results.
SMILES	StopGo reporter	RE007 growth inh
COc1ncnc2c1ncn2CCCN1CCN(Cc2ccc(C)cc2)CC1	-10.8%	2.1%
COc1ncc(-c2ccc(N3C(c4ccc([N+](=O)[O-])cc4)=Cc4ccccc4C3CC(C)=O)cc2)cn1 (stereo not drawn)	-18.8%	-1.3%
COc1cc(CNC(=O)c2cc(-c3cc(F)ccc3OC(C)C)n[nH]2)cc(OC)c1	-13.4%	4.3%
O=C(O)c1ccc([N+](=O)[O-])nc1	-5.3%	-10.2%
CCOC1=C2CN(S(=O)(=O)c3ccc(C)cc3)[C@H](c3ccccc3)C[C@@H]2N(S(=O)(=O)c2ccccc2C)[C@H](c2ccccc2)C1	10.7%	1.7%
CC(C)C[C@@H](COCc1ccc([N+](=O)[O-])cc1)N1CCN(C(=O)c2ccc(C(F)(F)F)cc2)CCC1=O	-13.6%	-2.9%
O=C(O)c1ccccc1/C=N/Nc1ccc(S(=O)(=O)Nc2ccc(Cl)cc2)cc1[N+](=O)[O-]	39.1%[activator]	3.1%
COc1ccccc1CNC(=O)c1cc(-c2ccccc2)nn1CC1CC(c2cccc([N+](=O)[O-])c2)=NO1 (stereo not drawn)	1.4%	7.9%
[N-]=[N+]=CC(=O)C(O)(c1ccccc1)C(Cl)c1ccccc1 (stereo not drawn)	0.0%	4.9%
Cc1cc(C)cc(Cn2c3ccc(NC(=O)NCc4ccccc4)cc3c(=O)n2C)c1	61.1%[activator]	-6.4%
Cc1cc2nc(C3CCCCC3)c(CC(C)(C)C)n2c(C)c1Br	-16.1%	-9.2%
COc1cccc(OC)c1C(=O)OCC(=O)NCC1CCCCC1	-2.6%	-7.4%
CC1=C(C(=O)N(C(C)C)C(C)C)CC(CC(=O)NC2CC2)C(=O)N1Cc1ccccc1 (stereo not drawn)	-17.1%	3.3%
CC1(C(=O)NS(=O)(=O)C2CC2)CCCN(C(=O)/C=C/c2ccccc2)C1 (stereo not drawn)	-17.6%	-7.1%
CCOC(=O)C1=CCN(S(=O)(=O)c2ccc(C)cc2)C1c1cccs1 (stereo not drawn)	-29.3%	20.0%
CN1CCCC(C)(C(=O)Nc2cccc(Oc3ccccc3)c2)C1 (stereo not drawn)	-7.1%	3.6%
C[C@H]1COc2cccc(N3CCN(C)CC3)c2S(=O)(=O)N1	-12.4%	24.4%
COc1cc2c(cc1CNC[C@H]1O[C@@H](n3cc(C)c(=O)[nH]c3=O)C[C@@H]1O)OCO2	-19.2%	-21.6%
O=S1(=O)CC(N2CCN(Cc3ccccc3F)CC2)CN1Cc1cn(Cc2ccc(F)cc2)nn1 (stereo not drawn)	0.0%	-12.1%
Cc1ccc(Cc2c(-c3ccc(F)cc3)nc3ccc(Br)cn23)cc1	34.0%[activator]	-12.8%
Cc1ccc(F)c(S(=O)(=O)NC(=O)C2(C)CCN2C(=O)Cc2cccs2)c1 (stereo not drawn)	0.7%	6.0%
COCC1CCN(C(=O)c2ccc3oc(CCc4ccccc4)nc3c2)C1 (stereo not drawn)	59.0%[activator]	20.3%
COc1ccc(N2CCN(c3cc(C(=O)NC4CCCCC4)ncn3)CC2)cc1OC	u	0.0%[18.4 µM]
O=C(O)c1ccc(CN2C[C@@H](CO)O[C@@H](n3cnc4c(NCc5ccco5)ncnc43)C2)cc1	-20.8%	0.9%
C[C@@H]1CN([C@H](C)CO)S(=O)(=O)c2ccc(C3=CCCCC3)cc2O[C@H]1CN(C)C(=O)Cc1cccnc1	-6.4%	-4.3%
